LASV entry inh: blocks Lassa virus binding to or entry into cells. Lassa virus pseudotype entry inhibition, cell reporter; control for the full effect not named in the record. Potency, µM (highest dose often 37.9 µM), without a hit: top-dose activity change, negative = inhibition, hits mostly inhibitors. 1.2% of 300,000 active. AID 540256; active means well fitted inhibition curve with a large enough effect; inconclusive means small, poorly fitted or top-dose-only effect, or effect the other way; inactive means flat fitted curve, though single readings scatter; tested in HEK293 cells; note: % is set by controls: 0 for no effect and ±100 for the full control effect; nearly all actives have a fitted effect of over 50% in size; luciferase read-out
MARV entry inh: blocks Marburg virus binding to or entry into cells; AID 540276; 1.8% of 300,000 active; Marburg virus pseudotyped entry inhibition, cell reporter; control for the full effect not named in the record; about a third of the inactives were read at about 46 µM; Potency, µM (highest dose often 37.8 µM), for the others: top-dose activity change, negative = inhibition, hits mostly inhibitors; active = well fitted inhibition curve with a large enough effect; inconclusive = small, poorly fitted or top-dose-only effect, or effect the other way; inactive = flat fitted curve, though single readings scatter; tested in HEK293 cells; about a fifth of its hits are not listed in these tables; note: % is set by controls: 0 for no effect and ±100 for the full control effect; luciferase read-out
RE007 growth inh: less growth of the S. pombe RE007 Vpr strain | S. pombe RE007 Vpr strain, BacTiter-Glo ATP luminescence, 24 h; control for the full effect not named in the record | Potency, µM (doses to about 92.2 µM), for inactives: at the highest dose activity change, negative = less growth | 0.21% of 360,000 active | AID 651644; active = well fitted falling curve with a large enough effect; inconclusive = small, poorly fitted or top-dose-only effect; inactive = no such curve, though single readings can be large or run the other way;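 note: % is set by controls: 0 for no effect and ±100 for the full control effect; nearly all actives have a fitted effect of over 50% in size; the assay follows cell death caused by Vpr and the record does not say whether a fall means rescue or toxicity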
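Fission yeast RE007 carrying one integrated HIV-1 vpr copy, seeded at OD 0.01 in PMG+AL medium with 23 nL pinned compound. Grown 24 h at 30 degrees; viability read by BacTiter-Glo luminescence after 5 min.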
Cruzain noTriton: inhibitors of Trypanosoma cruzi cruzain without detergent; P25779; purified cruzain, Z-FR-AMC fluorescence, no detergent; Potency, µM, inactives show max response, negative = inhibition, usual class: inhibitors; 2.3% of 200,000 active;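 note: plate controls were enzyme without inhibitor for no effect and buffer without enzyme for full effect; nearly all actives have a fitted effect of over 40% in size; top concentration of the series not given in the record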
Target sequence (P25779 123-467 limits assumed): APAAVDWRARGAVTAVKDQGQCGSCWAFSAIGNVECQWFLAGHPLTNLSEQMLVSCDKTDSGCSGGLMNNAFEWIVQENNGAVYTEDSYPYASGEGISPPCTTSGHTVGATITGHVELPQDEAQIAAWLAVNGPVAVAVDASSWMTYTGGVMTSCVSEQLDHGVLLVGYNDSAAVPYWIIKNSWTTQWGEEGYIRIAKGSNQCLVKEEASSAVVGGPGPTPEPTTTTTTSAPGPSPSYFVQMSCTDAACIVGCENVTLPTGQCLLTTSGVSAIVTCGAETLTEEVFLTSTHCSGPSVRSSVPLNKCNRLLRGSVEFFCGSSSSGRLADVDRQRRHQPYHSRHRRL
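Purified cruzain at 1.5 nM, pre-incubated 15 min with compound at room temperature in 100 mM sodium acetate pH 5.5, 5 mM DTT, 0.00005% Triton X-100. Reaction started with 2 uM Z-FR-AMC; AMC fluorescence increase over 60 s gives rate.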
NS1 function inh: blocks influenza NS1 protein function | S. cerevisiae slowed by influenza A NS1, growth recovery by OD600 | Potency, µM (doses to about 46.1 µM), for the others: at the highest dose activity, positive = more growth | 0.4% of 270,000 active | AID 2326; active means well fitted rising curve with a large enough effect; inconclusive means small, poorly fitted or top-dose-only effect; inactive means no such curve, though single readings can be large or run the other way; note: nearly all actives have a fitted effect of over 50% in size
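Recovery from NS1-induced slow growth read by OD600 in budding yeast switched to galactose assay medium (pH 6.0, -URA) at 1:100 dilution. Compound 23 nl per well; the matching strain lacking NS1 serves as control.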
SARS PLP yeast: inhibitors of SARS-CoV papain-like protease in yeast; S. cerevisiae expressing SARS-CoV PLpro, growth rescue; control for the full effect not named in the record; Potency, µM (titrated, usually from 32.9 µM), for the others: top-dose activity, positive = growth rescue; 0.19% of 330,000 active; active means well fitted rising curve with a large enough effect; inconclusive means small, poorly fitted or top-dose-only effect; inactive means no such curve, though single readings can be large or run the other way; note: 0% is about no effect; nearly all actives have a fitted effect of over 55% in size; growth read by luminescence after 48 h
Cruzain inh Det: inhibitors of Trypanosoma cruzi cruzain with detergent; P25779; purified cruzain, Z-FR-AMC fluorescence, 0.01% Triton; Potency, µM, inactives show max response, negative = inhibition, usual class: inhibitors; 0.43% of 200,000 active; AID 1478;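 note: plate controls were neutral wells for no effect and buffer without enzyme for full effect; nearly all actives have a fitted effect of over 40% in size; top concentration of the series not given in the record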
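Compounds were screened in titration against cruzain (1.5 nM) with 0.01% Triton X-100 to counter colloidal aggregation. Activity was the AMC fluorescence increase over 60 s after adding 2 uM Z-FR-AMC at pH 5.5.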
StopGo reporter: FMDV 2A StopGo reporter, luciferase signal; human cells with a luciferase reporter of 2A StopGo recoding; control for the full effect not named in the record; Potency, µM (titrated, usually from 57.9 µM), without a hit: at the highest dose signal change, negative = less light; 1.2% of 410,000 active; AID 1159524; active = well fitted falling curve with a large enough effect; inconclusive = small, poorly fitted or top-dose-only effect; inactive = no such curve, though single readings can be large or run the other way; tested in HEK293T cells; note: % is set by controls: 0 for no effect and ±100 for the full control effect; nearly all actives have a fitted effect of over 45% in size; luciferase light after 4 h
* hit, by the source's call; u = inconclusive; x = not tested or not shown; [ ] = dose if it differs, or a comment. Unless noted, calls come from the whole dose curve; as a rule, active = well fitted curve in the direction sought with a large enough effect; inconclusive = small, poorly fitted or top-dose-only effect, or another doubt; inactive = no such curve, though single readings can be large; an effect the other way counts as inactive or inconclusive. Potency is the fitted concentration of half-maximal effect.

Compound,StopGo reporter,MARV entry inh,NS1 function inh,Cruzain inh Det,SARS PLP yeast,RE007 growth inh,LASV entry inh,Cruzain noTriton
CC1=C(c2ccc(C(C)C)cc2)S(=O)(=O)NC1=NCc1ccccc1C,7%,-2%[46.1 µM],x,-5.4%,x,x,-6%[46.1 µM],-5%
O=C(NCc1ccccn1)c1cc(-c2ccccc2)nc2ccccc12,-17%,-25%,-5%,-1.8%,3%,20%,15%,-5%
O=C(Cn1nc(C(F)(F)F)c2c1CCCC2)NCc1ccco1,6%,-5%,-10%,0.9%,-1%,-6%,18%,3%
O=C(Nc1ccc(-c2nc3ccccc3s2)cc1)c1cc(-n2cnnc2)ccc1Cl,x,u,19%,1.1%,9%,0%,u,5%
Cc1nn(-c2ccccc2)c2c1/C(=N/O)CC(C)(C)C2,-26%,u,-32%,-1.4%,-1%,4%,-31%,-2%
CCN(CC(=O)Nc1ccc(C(=O)OC)cc1)Cc1ccccc1,1%,x,-7%,x,-1%,1%,x,x
COc1ccc(C2=CC(c3ccccc3Cl)n3nc(-c4ccc(C)cc4)nc3N2)cc1 (stereo unspecified),-17%,u,x,-4.9%,x,x,-24%[46.1 µM],3.2µM*
CSc1ccc(CCNC(=O)CN2C(=O)COc3ccc(S(=O)(=O)N4CCCCCC4)cc32)cc1,0%,u,x,0.5%,x,x,u,-8%
C=CCOC(=O)C(C#N)c1nc2ccccc2nc1N1CCC(C(=O)OCC)CC1 (stereo unspecified),u,-4%,-15%,-7.3%,-4%,16%,u,-13%
O=C(c1cn(-c2ccccc2)nc1-c1ccccc1)N1CCN(c2ccccn2)CC1,24%,u,-19%,x,0%,7%,u,x
CCCCNC(=S)Nc1ccc2[nH]c(=O)[nH]c2c1,-11%,-1%,9%,x,0%,7%,13%,x
COc1ccc(NC(=O)N2CCn3c2nc2ccccc23)cc1,9%,16%,-39%,-2.4%,-4%,-4%,-9%,u
COc1cccc(CN2CCc3nc(N4CCN(c5ncccn5)CC4)ncc3C2)c1,u,x,x,-2.0%,x,x,-6%[46.1 µM],8%
O=C(O)c1ccccc1SCc1cn2ccccc2n1,24%,6%,u,2.5%,-6%,1%,15%,0%
Cn1c(=O)[nH]c(=O)c2c1nc(N1CCCC1)n2CC(O)COc1ccccc1 (stereo unspecified),-19%,x,u,1.3%,0%,-3%,x,-5%
O=C(Cn1cnc2cc([N+](=O)[O-])ccc2c1=O)NCCc1ccc(F)cc1,-12%,-19%[46.1 µM],3%,x,1%,-22%,26%[46.1 µM],x
COC(=O)c1ccc(NC(=O)CN(c2ccc(C)cc2)S(=O)(=O)c2c(C)n[nH]c2C)cc1,12%,-21%,4%,-7.4%,-2%,-26%,-16%,u
CCCCCCn1nc(C(=O)N(CC(C)C)c2c(N)n(CCCC)c(=O)[nH]c2=O)c2ccccc2c1=O,-21%,-12%,-11%,x,-2%,6%,26%,x
O=C1NC[C@H](c2ccccc2)N(CCc2cccc3ccccc23)C1=O,-15%,x,0%,x,1%,-9%,x,x
CC1CN(C(=O)c2cc([N+](=O)[O-])cc([N+](=O)[O-])c2)CC(C)O1 (stereo unspecified),-6%,-25%[46.1 µM],6%,x,0%,4%,22%[46.1 µM],x

Some of the entries so far, field by field.
Cn1c(=O)[nH]c(=O)c2c1nc(N1CCCC1)n2CC(O)COc1ccccc1 (stereo unspecified)
  StopGo reporter: -19%
  MARV entry inh: x
  NS1 function inh: u
  Cruzain inh Det: 1.3%
  SARS PLP yeast: 0%
  RE007 growth inh: -3%
  LASV entry inh: x
  Cruzain noTriton: -5%

O=C(Cn1cnc2cc([N+](=O)[O-])ccc2c1=O)NCCc1ccc(F)cc1
  StopGo reporter: -12%
  MARV entry inh: -19%[46.1 µM]
  NS1 function inh: 3%
  Cruzain inh Det: x
  SARS PLP yeast: 1%
  RE007 growth inh: -22%
  LASV entry inh: 26%[46.1 µM]
  Cruzain noTriton: x

COC(=O)c1ccc(NC(=O)CN(c2ccc(C)cc2)S(=O)(=O)c2c(C)n[nH]c2C)cc1
  StopGo reporter: 12%
  MARV entry inh: -21%
  NS1 function inh: 4%
  Cruzain inh Det: -7.4%
  SARS PLP yeast: -2%
  RE007 growth inh: -26%
  LASV entry inh: -16%
  Cruzain noTriton: u

(listing goes on)
Compound,StopGo reporter,MARV entry inh,NS1 function inh,Cruzain inh Det,SARS PLP yeast,RE007 growth inh,LASV entry inh,Cruzain noTriton
Cc1nc2ccc(S(=O)(=O)NCC(=O)N(C)Cc3ccccc3)cc2s1,22%,7%[46.1 µM],x,x,-1%,8%,0%[46.1 µM],x
COc1ccccc1NC1=C(N2CCCCC2)C(=O)c2ccccc2C1=O,10µM*,u,9%,-15%,11%,u,u,-6%
CC(C)C[C@@H](CO)N1CCN(Cc2ccccc2)CCC1=O,7%,x,-2%,x,6%,4%,x,x
CCCc1cc(=O)[nH]c2nnc(SCC(=O)Nc3ccc(NC(C)=O)cc3)n12,-9%,u,x,x,x,-11%,4%,x
CCOC(=O)c1cc(S(=O)(=O)N(C)Cc2ccccc2)cn1C,-4%,u,-11%,x,-6%,-3%,13µM*,x
CC1=C(C(=O)Nc2ccc(Cl)cc2)C(C(C)C)n2nc(SCc3ccc(Cl)cc3)nc2N1 (stereo unspecified),-8%,-2%[46.1 µM],x,-2.4%,x,x,0%[46.1 µM],-7%
CC1CCCCN1Cc1c[nH]c2ccccc12 (stereo unspecified),-5%,x,13%,x,-1%,-5%,x,x
O=C(COC(=O)c1ccc(O)cc1)Nc1nccs1,20%,-1%[46.1 µM],9%,x,0%,5%,1%[46.1 µM],x
COc1cc(C)ccc1OCc1cc(C(=O)N2CCCCCCC2)no1,47%[activator],1%,-24%,x,-2%,0%,-3%,x
Cc1c(NC(=O)C(C)OC(=O)COc2ccc(C#N)cc2)c(=O)n(-c2ccccc2)n1C (stereo unspecified),4%,-9%,x,x,-2%,-10%,u,x
Cc1nc2c3ccccc3nc(NNC(=O)CCC(=O)NC(C)C)n2n1,6%,4%,u,0.8%,2%,2%,-3%,8%
CCOc1ccccc1NC(=S)N1CCCc2ccccc21,15%,3%[46.1 µM],x,x,1%,6%,3%[46.1 µM],x
CCN(CC)CCn1c2ccc(F)cc2c2nc(C)sc21,-29%,-16%,3%,-0.1%,-10%,-3%,u,-7%
CCC(c1ccccc1)C(CC)c1cc(O)c(O)c(O)c1 (stereo unspecified),u,u,x,x,x,16%,u,x
COc1cc(C(=O)Nc2nc3ccc4nc(C)sc4c3s2)cc(OC)c1OC,8%,-3%,11%,0.0%,-13%,8%,-9%,-7%
Cc1sc(NC(=O)C2CCCCC2)c(C#N)c1-c1ccccc1,52%[activator],-25%,-1%,1.6%,-4%,-8%,-26%,u
COC(=O)C(=O)C/C(=N/Nc1ncnc2ccccc12)c1ccc(Cl)cc1,1%,u,21%,x,20%,8%,-29%,x
C=CCCCCCCCCc1nc(SCC(C)=O)n[nH]1,u,x,-9%,x,-2%,-7%,x,x
CCc1ccc(NC(=O)Cn2c(=O)n(-c3cccc(OC)c3)c(=O)c3c(C)c(C(=O)N(C)C)sc32)cc1,0%,x,x,2.4%,x,x,-4%[46.1 µM],-1%
CC(C)CN(C(=O)COC(=O)CCCc1nc2ccccc2s1)c1c(N)n(Cc2ccccc2)c(=O)[nH]c1=O,-9%,-2%,x,x,-2%,18%,u,x
CCN1C(=O)CC(N2CCC(Nc3ccc(OC)cc3)CC2)C1=O (stereo unspecified),-24%,12%,-10%,-3.1%,-2%,-26%,14%,7%
Cc1ccc(C(=O)CNc2cccc([N+](=O)[O-])c2)cc1,58%[activator],0%[46.1 µM],x,x,1%,-9%,8%,x
O=C(Nc1ccccc1)C1CCN(S(=O)(=O)c2ccc3c(c2)OCCO3)CC1,-28%,9%[46.1 µM],x,x,2%,-17%,16%,x
Cc1ccc(CNC(=O)Cn2cccc2)cc1,0%,x,-2%,x,-2%,13%,x,x
NC(=O)c1ccc(NC(=O)COc2ccc([N+](=O)[O-])cc2Cl)cc1,19%,5%[46.1 µM],-5%,x,1%,15%,-4%[46.1 µM],x
COc1ccccc1C(=O)Nc1nnc(-c2ccc(Cl)cc2)o1,22%,x,-41%,x,-4%,-15%,x,x
O=[N+]([O-])c1ccccc1S(=O)(=O)N1CCN(Cc2cc3c(cc2O)OCO3)CC1,-17%,2%[46.1 µM],x,x,2%,-15%,20%[46.1 µM],x
O=C(COC(=O)c1ccccc1F)Nc1cc(S(=O)(=O)N2CCOCC2)ccc1N1CCCC1,-2%,-1%[46.1 µM],-8%,x,-1%,13%,0%,x
COCCNC(=O)CSc1nc2ccccc2c(=O)n1CC1CCCO1 (stereo unspecified),-8%,2%,8%,1.0%,-4%,2%,5%,14%
Cc1cccc(NC(=O)C2CC(=O)NC(Nc3nc4ccccc4s3)=N2)c1 (stereo unspecified),x,u,5%,-1.8%,-32%,x,-6%,u
O=C(N/N=C/c1ccc([N+](=O)[O-])o1)c1cccc(S(=O)(=O)N2CCOCC2)c1,-6%,-22%[46.1 µM],x,x,0%,2%,2%,x
Cc1ccccc1CSc1nnc(-c2ccccn2)n1C,23%,u,-9%,x,0%,4%,u,x
O=C(COC(=O)C1(c2ccc(F)cc2)CCCC1)N1CCN(C(=O)c2ccco2)CC1,u,-7%,-8%,0.4%,-2%,-7%,-19%,u
O=c1[nH][nH]c(=O)c2cc(N3CCCC3)ccc12,x,9%,5%,-1.6%,3%,17%,13%,3%
c1ccc(CCCNCC2COc3ccccc3O2)cc1 (stereo unspecified),3%,u,x,x,1%,0%,-3%[46.1 µM],x
Cc1ccn2c(=O)c(C(=O)NCCN3CCOCC3)c(O)nc2c1,-4%,x,-12%,x,0%,-12%,x,x
Cc1nn(CC(=O)NCc2ccccc2Br)c(=O)c2cc3occc3n12,-9%,23%[46.1 µM],x,-0.4%,x,x,x,11%
O=C(NCc1ccccc1)c1ccc(-c2ccc(F)cc2)o1,24%,-3%,-1%,-5.1%,-8%,-19%,6.5µM*,8%

Compound activity (PubChem)
